2A firefly: Primary qHTS Assay for Foot and Mouth Disease Virus Antivirals against NCGC Sytravon and CBC Compound Libraries: Firefly Luciferase Signal. HEK cells with a luciferase reporter of 2A StopGo recoding. Potency, µM (highest dose often 57.5 µM), without a hit: top-dose signal change, negative = less light. 120,000 compounds, 0.23% hits. AID 1745856, 2022; active = well fitted falling curve with a large enough effect; inconclusive = small, poorly fitted or top-dose-only effect; inactive = no such curve, though single readings can be large or run the other way; also: nearly all actives have a fitted effect of over 60% in size; overnight with compound
StopGo RLuc: Primary qHTS Assay for Foot and Mouth Disease Virus Antivirals against NCGC Sytravon and CBC Compound Libraries: Renilla Luciferase Signal; HEK cells with a luciferase reporter of 2A StopGo recoding; Potency, µM (top dose mostly 57.5 µM), for inactives: at the top dose signal change, negative = less light; 120,000 compounds, 0.32% hits; AID 1745857, 2022; active means well fitted falling curve with a large enough effect; inconclusive means small, poorly fitted or top-dose-only effect; inactive means no such curve, though single readings can be large or run the other way; also: nearly all actives have a fitted effect of over 55% in size; overnight with compound
* marks the source's active call; other numbers are inactive results; ? = inconclusive; & = joins results of further samples; [ ] = another dose, or the depositor's remark. % is scaled to controls: 0 for no effect and ±100 for the full control effect; potency is read from the fitted curve at half-maximal effect. The list is partial; the hit share may differ from the screen's.

1) CC(C)Cn1c(Cn2cccn2)nc2cc(NC(=O)c3ccccc3)ccc21
2) O=C(O)CCNS(=O)(=O)c1ccc(C(=O)/C=C/c2cccc(Cl)c2)cc1
3) Cc1cccc(N2CCN(C(=O)C3CCN(S(=O)(=O)c4cccs4)CC3)CC2)c1C
4) Cc1c(Br)c2ccccc2n1CC(=O)NCC(=O)N(C)C
5) Cc1ccc2nc(SCC(=O)Nc3sc4c(c3C#N)CCC4)[nH]c2c1
6) Cc1ccc2c(=O)cc(C(=O)Nc3c(C(=O)c4ccccc4)oc4ccccc34)oc2c1
7) CCC(C(=O)N1CCN(c2cc(Cl)ccc2C)CC1)n1nc(C)n2c(cc3occc32)c1=O (stereo not given)
8) O=C(Nc1cccc(-c2nnnn2C2CC2)c1)NC1CCCCCC1
assay / entry	1	2	3	4	5	6	7	8
2A firefly	101%[activator]	7%	12%	-4%	4%	-5%	?	17%
StopGo RLuc	41%[activator]	8%	7%	-8%	-2%	6%	?	?

Look-ups from the results shown.
Reading for CC(C)Cn1c(Cn2cccn2)nc2cc(NC(=O)c3ccccc3)ccc21 under 2A firefly: 101%[activator]
Reading for Cc1c(Br)c2ccccc2n1CC(=O)NCC(=O)N(C)C under StopGo RLuc: -8%
Reading for Cc1ccc2c(=O)cc(C(=O)Nc3c(C(=O)c4ccccc4)oc4ccccc34)oc2c1 under 2A firefly: -5%

Later entries.
9) CCc1ccc(-n2c(=O)c3c4c(sc3n(Cc3cc(=O)n5c(C)cccc5n3)c2=O)CCC4)cc1
10) Cc1ccccc1-c1cc(=O)c2cc(NC(=O)c3ccco3)ccc2o1
11) CCc1nnc(NC(=O)c2cc(=O)c3cc(Cl)cc(Cl)c3o2)s1
12) CCOc1ccc(NC(=O)Cn2c(=O)n(Cc3ccccc3)c(=O)c3sc4ccccc4c32)cc1
13) COc1ccccc1Oc1nc2c(C)cccn2c(=O)c1/C=C(\C#N)c1nc2ccccc2[nH]1
14) CCCCCCCCCNS(=O)(=O)CCC
15) CCc1ccc(-c2cc(C)no2)cc1S(=O)(=O)Nc1ccc(Cl)cc1
16) Cc1nnc(SCC(=O)N2CCN(c3ncccn3)CC2)n1C1CC1
assay / entry	9	10	11	12	13	14	15	16
2A firefly	?	0%	-1%	-13%	-18%	-8%	-14%	-1%
StopGo RLuc	-14%	41%[activator]	-14%	-10%	-2%	8%	-4%	-5%

17) NC(=O)NCc1ccc(C(=O)NNC(=O)c2c[nH]c3ccccc23)cc1
18) Cc1ccccc1Nc1c(-c2cccc(N(C)C)c2)nc2ccc(Br)cn12
19) CC1=C/C(=N\Nc2ccccc2Cl)CC1
20) Cc1nc2ccn(Cc3cccs3)c(=O)c2cc1C(=O)N1CCN(c2ccc(F)cc2)CC1
21) C#CCN(CCC(=O)OC)C(C)C
22) CCOC(=O)COc1ccc(CC)cc1C(=O)c1ccn2nc(-c3ccccc3)cc2n1
23) Cc1nn(CCCC(=O)NCCc2ccc(Cl)cc2)c(=O)c2nn(-c3ccccc3)c(C)c12
24) CCCCN(CCCNC(=O)c1cc(Nc2ccc(OC)cc2)nc2ccccc12)Cc1ccccc1
assay / entry	17	18	19	20	21	22	23	24
2A firefly	7%	0%	35%[activator]	-4%	7%	2%&34%	4%	-8%
StopGo RLuc	12%	-5%	13%	0%	8%	6%&41%	-16%	-9%

Four entries from above, with bars between the fields.
# | Structure | 2A firefly | StopGo RLuc
23 | Cc1nn(CCCC(=O)NCCc2ccc(Cl)cc2)c(=O)c2nn(-c3ccccc3)c(C)c12 | 4% | -16%
20 | Cc1nc2ccn(Cc3cccs3)c(=O)c2cc1C(=O)N1CCN(c2ccc(F)cc2)CC1 | -4% | 0%
22 | CCOC(=O)COc1ccc(CC)cc1C(=O)c1ccn2nc(-c3ccccc3)cc2n1 | 2%&34% | 6%&41%
18 | Cc1ccccc1Nc1c(-c2cccc(N(C)C)c2)nc2ccc(Br)cn12 | 0% | -5%

(list continues)
25) Cc1nc(NC(=O)CCc2ccc(S(N)(=O)=O)cc2)sc1C
26) COc1ccc(Cl)cc1NC(=O)/C(C#N)=C/c1coc2ccc(Cl)cc2c1=O
27) O=C(CCc1c[nH]c2ccccc12)OCC(=O)N1CCCCCC1
28) CCOCCCNC(=O)C1CCCC(C(=O)NCCCOCC)C1 (stereo not given)
29) CCC(=O)N1CCc2cc(S(=O)(=O)NC(Cc3ccccc3)C(=O)Nc3cccc(OC)c3)ccc21 (stereo not given)
30) CCc1ccc(-c2csc(-c3nc(-c4ccc(C)cc4C)cs3)n2)cc1
31) Cn1nc(C(=O)Nc2ccc(F)cc2)c2ccccc2c1=O
32) O=C(CSc1n[nH]c(-c2ccccc2Cl)n1)N1CCN(c2ccccc2F)CC1
assay / entry	25	26	27	28	29	30	31	32
2A firefly	104%[activator]	-5%	7%	110%[activator]	-13%	0%	38%[activator]	-16%
StopGo RLuc	17%	1%	-7%	8%	-1%	-6%	0%	-4%

33) O=C(C1CC=CCC1)N1CCN(Cc2ccccc2)CC1 (stereo not given)
34) O=C(Nc1cc(C(F)(F)F)ccc1Cl)c1nc2ccccc2nc1N1CCCCC1
35) COc1ccc(C(c2ccc(C)o2)c2ccc(C)o2)c(OC)c1
36) O=c1cc(-c2ccc(Cl)cc2)oc2cc(O)ccc12
37) O=C(NC(=O)c1ccccc1)Nc1cccc(Cl)c1
38) COC(=O)c1ccc(CNC(=O)C2CC2)cc1
39) Cc1nc(S(=O)(=O)N2CCOCC2)c(C#N)c(C)c1Cl
40) CONC(=O)c1ccccc1Cc1ccccc1
assay / entry	33	34	35	36	37	38	39	40
2A firefly	-14%	-13%	15%	136%[activator]	107%[activator]	-2%	-13%	14%
StopGo RLuc	-6%	-6%	9%	13%	6%	0%	-20%	-4%

2 records picked at random from those above, as already listed:
39) Cc1nc(S(=O)(=O)N2CCOCC2)c(C#N)c(C)c1Cl
33) O=C(C1CC=CCC1)N1CCN(Cc2ccccc2)CC1 (stereo not given)
assay / entry	39	33
2A firefly	-13%	-14%
StopGo RLuc	-20%	-6%

Additional records follow.
41) Clc1ccc(-c2nc(N3CCCCC3)c3ccccc3n2)cc1
42) Cn1nnnc1SCCCNCc1ccccc1OCc1ccccc1Cl
43) CCOC(=O)c1ccccc1NC(=O)CSc1nc(=O)[nH]c2c1CCCC2
44) O=C(CCC(=O)N1CC2CCCN2c2ccccc21)NCc1ccc(Cl)cc1 (stereo not given)
45) CCN(CC)c1ccc2nc3c(=O)n(C)c(=O)n(C)c3nc2c1
46) CCN(CC)C(=S)SC(C(=O)c1ccccc1)c1ccccc1 (stereo not given)
47) O=C(CN1C(=O)COc2ccc(S(=O)(=O)N3CCOCC3)cc21)N1CCN(c2ccc(F)cc2)CC1
48) CCc1ccc(C(=O)C(C)n2cnc3c2c(=O)n(C)c(=O)n3C)cc1 (stereo not given)
assay / entry	41	42	43	44	45	46	47	48
2A firefly	-1%	?	-17%	-9%	0%	9%	11%	?
StopGo RLuc	-7%	-13%	-4%	-9%	-8%	12%	11%	?

49) Cc1ccccc1S(=O)(=O)n1cc2c(=O)n(C)c(=O)n(C)c2n1
50) CC(=O)OCC(=O)[C@@]1(O)CC[C@H]2[C@@H]3CCC4=CC(=O)CC[C@]4(C)[C@H]3C(=O)C[C@@]21C
51) CCN(Cc1ccc(OC)c(OC)c1)S(=O)(=O)c1cnn(C)c1
52) CCCCCn1nc(C(=O)Nc2ccccc2F)c2ccccc2c1=O
53) CC(=O)N1CCN(C(=O)c2cccc3c(=O)c(C)c(-c4ccccc4)oc23)CC1
54) O=C(NCCCc1nc2ccccc2n1Cc1ccccc1Cl)C1CCCCC1
55) CN(C1CCCCC1)S(=O)(=O)c1ccc2c(c1)c(=O)c(C(=O)NCc1ccccc1Cl)cn2C
56) Cc1ccc2c(=O)cc(C(=O)NCCc3ccc(S(N)(=O)=O)cc3)oc2c1
assay / entry	49	50	51	52	53	54	55	56
2A firefly	-3%	-6%	14%	10%	37%[activator]	-7%	-19%	?
StopGo RLuc	-5%	-15%	16%	5%	23%	2%	-6%	?

57) CC(=O)Nc1cc(F)c(F)cc1NC(=O)CCc1c[nH]c2ccccc12
58) C/C=C/Cn1c(Br)nc2c1c(=O)[nH]c(=O)n2C
59) COc1cc(OC)c(C(=O)OCC(=O)Nc2ccccc2C(C)=O)cc1OC
60) Cc1ccccc1CNC(=O)CC(C)C
61) CC(=O)c1c(C)[nH]c(C(=O)C(C)OC(=O)c2ccc(F)cc2F)c1C (stereo not given)
62) CCCOc1ccc(C(=O)Nc2ccc3oc(-c4ccc(N(C)C)cc4)nc3c2)cc1
63) COC(=O)c1ccc(Cn2nc(-c3ccc(C)cc3)ccc2=O)cc1
64) CCCc1nc(-c2ccc(-c3ccc(Cl)cc3)nc2OC)no1
assay / entry	57	58	59	60	61	62	63	64
2A firefly	11%	93%[activator]	4%	4%	14%	36%[activator]	?	74%[activator]
StopGo RLuc	12%	65%	-4%	-3%	-8%[1.06 µM]	?	?	16%

65) CCc1nc2c(cnn2-c2ccc(C)cc2)c(=O)n1-c1ccc(OC)c(Cl)c1
66) CS(=O)(=O)Nc1ccccc1CNC(=O)C1CCCC1
67) Cl/C(=C/c1ccc(Cl)cc1)c1ncc(-c2ccc(Cl)cc2)o1
68) O=C(NCCC1=CCCCC1)C1CCN(C(=O)N2CCOc3ccc(Cl)cc32)CC1
69) O=c1c2sc3ccccc3c2n(Cc2ccccc2F)c(=O)n1CCc1ccccc1
70) CCOC(=O)C(C#N)C1(Cc2ccccc2)CCOC(C)(C)C1 (stereo not given)
71) Cc1ccc(C(=O)C(CC(=O)c2ccccc2)S(=O)(=O)c2ccc(C)cc2)cc1 (stereo not given)
72) O=[N+]([O-])c1ccc(Cl)nc1
assay / entry	65	66	67	68	69	70	71	72
2A firefly	-13%	2%	10%	7%	121%[activator]	1%	71%[activator]	2%
StopGo RLuc	-8%	11%	6%	26%	-10%	-2%	15%	9%

73) CCCNc1nc2ccccc2nc1C(=O)Nc1ccccc1
74) Cc1ccc(NC(=O)CSc2nc(=O)cc(N)n2-c2ccccc2)cc1
75) CC(C)c1nc(Cn2cnc3c2c(=O)n(C)c(=O)n3C)cs1
76) O=S1(=O)NCC(O)c2sccc21 (stereo not given)
77) CN(C)C(=O)C1CN(C(=O)CCc2ncc(-c3ccc(Cl)cc3Cl)o2)c2ccccc2O1 (stereo not given)
78) CCc1cc(C(=O)N/N=C/c2ccncc2)cs1
79) O=C(c1ccc(Cn2cncn2)cc1)N1CCN(c2cccc(Cl)c2)CC1
80) C=Cc1ccc(Cn2c(C(=O)O)c(CNCc3cc(Br)ccc3OC)c3ccc(C)cc32)cc1
assay / entry	73	74	75	76	77	78	79	80
2A firefly	-17%	-6%	?	25%	-11%	86%[activator]	?	-16%
StopGo RLuc	-11%	-6%	?	-2%	?	-9%	-27%	-3%

81) O=C(C1CCN(S(=O)(=O)c2cccc3nonc23)CC1)N1CCN(c2ccc(F)cc2)CC1
82) CC(C)Cc1nnc(NC(=O)c2cccc3c2ccn3C)s1
83) CCn1cc(C(=O)NCCC(C)C)c(=O)c2cc(S(=O)(=O)N(C)C3CCCCC3)ccc21
84) CSc1ccc(Cl)c(C(=O)Nc2ccc3c(c2)CCC3)c1
85) Cc1ccc(Cn2c(CN3CCC(C(=O)NCc4cccnc4)CC3)cc3ccccc32)cc1
86) O=C(Nc1cccc(Cl)c1Cl)c1ccc2c(c1)N(Cc1cccc(Cl)c1)C(=O)c1ccccc1S2(=O)=O
87) Cc1cc(Cl)ccc1OCCCc1n[nH]c(=S)n1C
88) O=C(Nc1ccc(Cl)cc1)c1ccc2c3c(cccc13)CC2
assay / entry	81	82	83	84	85	86	87	88
2A firefly	?	216%[activator]	0%	217%[activator]	-21%	-12%	0%	38%[activator]
StopGo RLuc	-12%	16%	7%	24%	2%	1%	17%	4%

Entries by screen from the list.
2A firefly for nos. 81 to 88: ?, 216%[activator], 0%, 217%[activator], -21%, -12%, 0%, 38%[activator]
StopGo RLuc for nos. 81 to 88: -12%, 16%, 7%, 24%, 2%, 1%, 17%, 4%

Further records:
89) COc1ccccc1NC(=O)c1sc2nc3c(cc2c1N)CN(Cc1ccccc1)CC3
90) CCN(CC)C(=O)C(=O)c1c(-c2ccccc2)[nH]c2ccccc12
91) CC(C)c1ccc(NC(=O)CC2Oc3ccccc3NC2=O)cc1 (stereo not given)
92) COC(=O)CCNC(=O)N1CCN(c2nnc(C)c3c(C)n(-c4ccc(Cl)cc4)nc23)CC1
assay / entry	89	90	91	92
2A firefly	-15%	14%	103%[activator]	-19%
StopGo RLuc	4%	113%[activator]	16%	-6%
